MT1-MMP act inh: blocks activation of human MT1-MMP | 0.061% of 360,000 active | HT1080 RFP-PRO-GFP cells, GFP/RFP ratio fluorescence, overnight; percent of plate control window, DMSO zero | GFP/RFP ratio change, % at 20 µM | AID 651647;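 active means GFP/RFP ratio change of at least 30% with cell ATP level not reduced by more than half and red fluorescence within 50% of control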; further: strong numbers were not always called active
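Assay system: HT1080 RFP-PRO-GFP cells. Benchmarks: DMSO vehicle wells and RFP-L50D-GFP reporter cell wells. Times: overnight cell settling, then overnight compound exposure, 37 °C, 5% CO2. Compound: 20 µM single dose, 1% DMSO. Read-out basis: GFP/RFP fluorescence ratio.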
Env fusion inh: blocks HIV Env-driven cell-cell fusion | HeLa-JRFL Env/CEM21 cell fusion, luciferase | 1.1% of 360,000 active | inhibition, % at 12.3 µM | AID 651610;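 active means mean replicate inhibition score of at least 50 and every replicate individually at or above 50; inconclusive means only one of the two criteria met; inactive means mean below 50 and not all replicates reaching 50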;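 further: 0% = plate neutral controls and 100% = maraviroc near 300 nM; one replicate is shown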
eIF4H FP inh: inhibitors of RNA binding by human eIF4H. Q15056. eIF4H fluorescence polarization binding assay. inhibition, % at 35 µM. 0.94% of 290,000 active;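 active means 50% or more with normal probe brightness, or confirmed in later tests; inconclusive means above 50% with abnormal brightness, or retests that disagree; inactive means below 50% or failed in later tests; about a fifth of its hits are not listed in these tables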;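 further: calls also rest on retests at 20 µM and on dose response follow-up; 0% = protein and probe with vehicle and 100% = probe without protein; strong numbers were not always called active; many hits fall short of the cut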
CSC inhib: cancer stem cell inhibition. inhibition, % at 7.5 µM. AID 2717. cancer stem cell-like cells viability, luminescence. 1.1% of 300,000 active;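 active means mean at 75% or more and at least half the replicates too; inconclusive means mean and replicates disagree; tested in HMLE shEcad cells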;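 further: 0% = median of negative and 100% = median of positive control wells; the first replicate is given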
PABP FP inh: blocks human PABP binding to poly(A) RNA; 1% of 290,000 active; fluorescence polarization; AID 2014; inhibition, % at 35 µM;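 active means 50% or more with normal probe brightness, or confirmed in later tests; inconclusive means above 50% with abnormal brightness, or retests that disagree; inactive means below 50% or failed in later tests; about a fifth of its hits are not listed in these tables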;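 further: calls also rest on retests at 20 µM and on dose response follow-up; controls were probe without protein and protein plus probe with vehicle; some compounds called inactive have numbers as strong as hits; many hits fall short of the cut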
Target sequence (P11940 whole entry, looked up): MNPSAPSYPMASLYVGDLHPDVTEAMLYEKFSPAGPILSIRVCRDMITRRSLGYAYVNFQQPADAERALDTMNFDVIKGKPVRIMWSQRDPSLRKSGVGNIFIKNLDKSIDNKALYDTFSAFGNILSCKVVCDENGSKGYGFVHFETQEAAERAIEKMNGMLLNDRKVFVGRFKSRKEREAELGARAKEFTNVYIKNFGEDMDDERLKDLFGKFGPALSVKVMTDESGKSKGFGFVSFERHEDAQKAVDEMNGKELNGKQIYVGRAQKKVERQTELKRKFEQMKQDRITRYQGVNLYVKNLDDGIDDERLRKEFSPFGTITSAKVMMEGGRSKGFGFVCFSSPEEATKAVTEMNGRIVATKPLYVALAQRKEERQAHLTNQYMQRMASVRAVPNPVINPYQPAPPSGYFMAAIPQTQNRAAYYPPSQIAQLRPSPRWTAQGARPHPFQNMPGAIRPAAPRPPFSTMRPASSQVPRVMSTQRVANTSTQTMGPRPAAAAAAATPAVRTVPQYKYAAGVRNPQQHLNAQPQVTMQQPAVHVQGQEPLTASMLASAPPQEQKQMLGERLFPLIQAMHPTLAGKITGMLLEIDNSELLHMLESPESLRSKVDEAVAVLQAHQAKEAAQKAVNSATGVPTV
UUG fidelity: alters start codon recognition fidelity in yeast; S. cerevisiae UUG-firefly luciferase reporter, luminescence/redox ratio; activity score, % at 18.7 µM; 0.13% of 350,000 active;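 active means replicate mean at a twofold rise or more, about +100% in these data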;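 further: firefly luciferase made from a UUG start codon reports start codon fidelity; reporter light over untreated wells divided by growth signal over untreated wells; some hits fall short of that in this replicate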
Rce1 inhib: yeast Ras-converting enzyme inhibition | Q03530 | yeast membranes, quenched prenylated peptide cleavage fluorescence | calls only | 0.27% of 290,000 active | AID 2563;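 active means fall in fluorescence gain of 50% or more versus controls, with final raw signal at or below 3038400; inconclusive means same 50% fall but final raw signal above 3038400; inactive means fall in fluorescence gain under 50%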;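 further: plate controls were neutral control wells for no effect and wells lacking membranes for full effect; tested at 10 µM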
Target sequence (Q03530 whole entry, looked up): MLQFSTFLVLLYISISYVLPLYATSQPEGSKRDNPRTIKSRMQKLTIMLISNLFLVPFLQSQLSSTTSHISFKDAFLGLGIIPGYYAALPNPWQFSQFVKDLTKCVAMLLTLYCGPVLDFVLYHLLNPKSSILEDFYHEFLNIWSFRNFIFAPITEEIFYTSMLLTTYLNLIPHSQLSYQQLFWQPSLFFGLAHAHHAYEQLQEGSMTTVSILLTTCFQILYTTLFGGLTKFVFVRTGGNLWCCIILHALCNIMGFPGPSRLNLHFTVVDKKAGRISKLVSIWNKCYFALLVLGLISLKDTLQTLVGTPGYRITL
eIF4H FP inh retest: recorded beside eIF4H FP inh, whose call it bears; inhibition, %; compound at 20 µM; confirmation average;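 mean of two retest wells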
PABP FP inh retest: also measured in PABP FP inh; calls as there; inhibition, %; compound at 20 µM; confirmation repeats;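 mean of two retest wells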
MT1-MMP act inh RFP: recorded beside MT1-MMP act inh, whose call it bears; RFP signal change, %; measured here: RFP expression control read;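 0 = vehicle wells; hits needed this value within 50% of zero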
* hit, by the source's call; i = inactive; ? = inconclusive; nt = not tested or not shown.

SMILES | MT1-MMP act inh | MT1-MMP act inh RFP | Env fusion inh | eIF4H FP inh | CSC inhib | PABP FP inh | UUG fidelity | Rce1 inhib | others
O=C(CSc1nnc(-c2cccnc2)n1-c1ccccc1)N1CCN(c2ccc(F)cc2)CC1 | -17 | -12 | nt | -2 | -13 | 6 | -4 | i
CCNC(=O)CC1SC(=Nc2ccc(C)cc2)NC1=O (stereo unspecified) | 1 | 1 | nt | 47 | -11 | 0 | nt | i
COc1ccc(CNC(=O)[C@@H]2CC=C[C@@H]3CCN(Cc4ccc(Cl)c(Cl)c4)C(=O)[C@@H]32)cc1 | 3 | -10 | -19 | nt | 5 | nt | -11 | i
CCOC(=O)c1sc(NC(=O)C2CSC3(C)CCC(=O)N23)nc1C (stereo unspecified) | -2 | -2 | -11 | nt | -23 | nt | -16 | nt
Cc1ccc(NC(=O)c2ccc3c(c2)OCCO3)nc1 | -3 | 2 | -10 | nt | 14 | nt | -69 | i
Cc1onc(-c2ccccc2)c1CNS(=O)(=O)c1ccc(F)cc1F | 1 | -3 | 19 | 8 | -2 | -3 | 7 | i
O=C1c2ccsc2SCCN1Cc1c(Cl)cccc1Cl | 2 | 1 | nt | -7 | -10 | 14 | nt | i
Cc1cc(C)c(S(=O)(=O)N2CCCOC2CNC(=O)C(=O)NCc2cccs2)c(C)c1 (stereo unspecified) | 3 | 4 | -17 | 6 | -10 | 11 | nt | i
COC(=O)COc1cc(=O)oc2ccc(NS(=O)(=O)c3ccccc3)cc12 | 3 | 3 | -8 | 0 | 0 | 1 | -9 | i
Cc1ccc(NC(=S)NC2CCN(Cc3ccccc3)CC2)cc1 | 6 | 12 | -17 | -5 | 11 | -5 | nt | i
Cc1ccc(CNC(=O)C2CCC(=O)N(CCc3cccc(F)c3)C2)cc1 (stereo unspecified) | 1 | 0 | -7 | -3 | -3 | -6 | -17 | i
CC(C)CNC(=O)c1oc2ccccc2c1COc1ccccc1 | -4 | -5 | 14 | -3 | 27 | 8 | -9 | i
COC(=O)c1cc(OC)c(OC)cc1NC(=S)Nc1cc(Cl)ccc1OC | -1 | 3 | nt | -9 | nt | -1 | nt | i
O=Cc1cn(-c2ccccc2)nc1-c1ccccn1 | -5 | 2 | 3 | 8 | 5 | -7 | -7 | i
COc1ccc(-c2ccc(CN3C(C(C)C)C(=O)N(Cc4cn(CCC5OCCO5)nn4)CCS3(=O)=O)cc2)cc1 (stereo unspecified) | 2 | -14 | -2 | nt | nt | nt | -17 | nt
Cc1ccc(OCc2nnc(-c3ccc(Cl)cc3)o2)cc1 | 6 | -1 | 15 | nt | -10 | nt | 3 | i
CC1(C(=O)NCC2CC2)C=CC2(CCCCC2)N1C(=O)c1ccccc1 (stereo unspecified) | -1 | -1 | nt | -11 | 6 | 6 | -9 | i
O=C(Nc1ccccc1)Nc1ccc(Br)cc1F | -10 | -17 | nt | -7 | -11 | 1 | -8 | i
CCOc1ccc(Cl)cc1/C=N/O | 4 | 2 | nt | -1 | -2 | 0 | nt | i
COc1ccc(C(=O)NC2CCCN(Cc3ccc(Cl)cc3)C2)c(OC)c1 (stereo unspecified) | -4 | -11 | 19 | -4 | 2 | -4 | 4 | i

Structures above that have fluorine (four):
SMILES | MT1-MMP act inh | MT1-MMP act inh RFP | Env fusion inh | eIF4H FP inh | CSC inhib | PABP FP inh | UUG fidelity | Rce1 inhib | others
O=C(CSc1nnc(-c2cccnc2)n1-c1ccccc1)N1CCN(c2ccc(F)cc2)CC1 | -17 | -12 | nt | -2 | -13 | 6 | -4 | i
Cc1onc(-c2ccccc2)c1CNS(=O)(=O)c1ccc(F)cc1F | 1 | -3 | 19 | 8 | -2 | -3 | 7 | i
Cc1ccc(CNC(=O)C2CCC(=O)N(CCc3cccc(F)c3)C2)cc1 (stereo unspecified) | 1 | 0 | -7 | -3 | -3 | -6 | -17 | i
O=C(Nc1ccccc1)Nc1ccc(Br)cc1F | -10 | -17 | nt | -7 | -11 | 1 | -8 | i

The listing continues.
SMILES | MT1-MMP act inh | MT1-MMP act inh RFP | Env fusion inh | eIF4H FP inh | CSC inhib | PABP FP inh | UUG fidelity | Rce1 inhib | others
CCSc1ccc([C@@H]2[C@@H]3C(=O)N(CC)C(=O)[C@@H]3[C@]3(C(=O)OC)CCCN23)cc1 | -4 | -1 | -7 | nt | 5 | nt | -3 | i
CC(C)c1ccc(NCCC(=O)c2cccs2)cc1 | 5 | 6 | -9 | 12 | -15 | -4 | nt | i
CCC(C)(C)NC(=O)CN(C(=O)CCC(=O)Nc1cc(C)ccn1)c1ccc2c(c1)OCCO2 | -6 | 1 | -1 | -1 | -5 | 0 | nt | i
O=C(COC(=O)c1ccncc1)c1ccc(Br)cc1 | -2 | 4 | 5 | -3 | -8 | -9 | nt | i
C=CCc1ccc(OCCOCCOc2ccc(C)cc2[N+](=O)[O-])c(OC)c1 | 3 | 1 | nt | 13 | 12 | -5 | -10 | i
CCOC(=O)CSC1=C(C#N)C(c2ccc(OC)cc2)C2=C(CC(C)(C)CC2=O)N1 (stereo unspecified) | -9 | -8 | 22 | -7 | 9 | 1 | 5 | i
CCn1c(SCC(=O)Nc2cccc(OC)c2)nc2c(c1=O)SCC2 | 1 | 1 | 9 | nt | -14 | nt | -2 | i
COc1ccccc1N1CCN(C(=O)CSc2nc3ccccc3[nH]2)CC1 | 5 | 3 | nt | -4 | 5 | -2 | -15 | i
O=C(CSc1nnnn1-c1ccc(Cl)cc1)NNC(=O)c1ccc([N+](=O)[O-])cc1 | 7 | 9 | 7 | 5 | 6 | -1 | nt | i
COc1ccc(OC)c(NC(=O)C2CCN(S(=O)(=O)c3cccs3)CC2)c1 | 4 | -4 | -19 | -6 | nt | 0 | nt | i
Cc1ccccc1-n1nnnc1SCC(N)=O | 6 | 5 | nt | -1 | -14 | -8 | -13 | i
CCN(c1ccccc1)S(=O)(=O)c1ccc(OCC(=O)Nc2cc(C)on2)cc1 | 5 | 4 | nt | 1 | -2 | 2 | nt | i
CCOC(=O)C1=C(C)N=C2SC(C)C(=O)N2C1c1ccc(OC(C)=O)c(OCC)c1 (stereo unspecified) | nt | nt | nt | -2 | -4 | 4 | nt | i
CC(=O)c1ccc(NC(=O)Nc2ccc(S(=O)(=O)N3CCCC3)cc2)cc1 | 4 | -5 | 28 | -2 | -8 | 0 | -7 | i
O=C(NCCc1ccncc1)Nc1ccc(F)cc1 | 3 | 2 | -3 | 4 | 4 | -2 | 0 | i
CCOc1ccc(NC(=O)CC(C)S(=O)(=O)c2ccc3c(c2)NC(=O)CO3)cc1 (stereo unspecified) | 2 | -2 | -9 | -4 | -1 | -1 | -3 | i
O=C(Nc1cnccn1)Nc1ccccc1F | 1 | 1 | -1 | -4 | -14 | -7 | -3 | i
COc1ccc(N(CC(=O)NCCSc2ccccn2)S(C)(=O)=O)cc1Cl | 2 | 6 | -95 | 5 | -5 | 6 | -48 | i
CC(=O)c1cccc(NC(=O)c2ccco2)c1 | -2 | -1 | nt | 0 | nt | -6 | -15 | nt
O=[N+]([O-])c1ccc(NC(=S)N2CCOCC2)cc1 | 0 | 2 | -2 | 5 | -2 | -3 | -6 | i
COc1ccc(NC(=O)c2cccc(N3C(=O)C4C5C=CC(C5)C4C3=O)c2)cc1 (stereo unspecified) | 4 | 0 | 4 | -21 | -3 | -4 | 2 | i
CCOC(=O)c1c(C)[nH]c(C(=O)N2CCN(c3ccc(OC)cc3)CC2)c1C | 2 | 2 | 5 | -4 | -1 | 6 | nt | i
CC(NC(=O)CNC(=O)c1ccco1)c1ccc(S(N)(=O)=O)cc1 (stereo unspecified) | 1 | 1 | 3 | 5 | -6 | -1 | -14 | i
CC1CC(C)C(=NNC(N)=O)C(C(O)CC2CCC(=O)NC2=O)C1 (stereo unspecified) | -36 | -15 | ? | nt | nt | nt | -10 | nt
COc1ccc(/C=C/C(=O)OCC(=O)NC2CCCCCCC2)cc1 | 0 | 1 | nt | nt | -14 | nt | -11 | nt
Cc1cc(C(=O)Cn2cnc3cc([N+](=O)[O-])ccc3c2=O)c(C)n1CC1CCCO1 (stereo unspecified) | -1 | -1 | -3 | 52 | nt | 128 | nt | i | eIF4H FP inh retest=5;PABP FP inh retest=44
CC1CCC(NC(=O)C2CC(=O)N(c3ccc(Cl)cc3)C2)CC1 (stereo unspecified) | 2 | 4 | -26 | -10 | 11 | 1 | 7 | i
COc1ccc(OCc2cccc(C(=O)N3CCCC3)c2)cc1 | -10 | -6 | nt | 2 | -4 | 0 | 5 | i
COc1ccc(C(CNC(=O)c2cncc(Br)c2)N(C)C)cc1 (stereo unspecified) | -3 | 1 | -9 | 2 | 4 | -4 | nt | i
O=C(NCC(=O)N(Cc1ccccc1)C(C(=O)NC1CCCCC1)c1ccco1)c1ccco1 (stereo unspecified) | 3 | -1 | nt | -6 | -1 | -5 | -4 | i
O=C(Nc1cccc2ccccc12)c1onc2c1CCCC2 | 0 | 3 | nt | 3 | -21 | 10 | -2 | i
CCN(c1ccccc1)S(=O)(=O)c1ccc(Cl)c(NC(=O)COC(=O)c2cc(O)c3ccccc3c2O)c1 | nt | nt | nt | 11 | 103* | 22 | nt | i
CN(Cc1ccccn1)Cc1cn(Cc2ccccc2)nc1-c1ccc2c(c1)OCO2 | 3 | 0 | -2 | -6 | -9 | -2 | nt | i
O=C(c1cc2n(n1)C(C(F)(F)F)CC(c1ccco1)N2)N1CCN(c2ccccn2)CC1 (stereo unspecified) | 4 | 2 | nt | 2 | 38 | 10 | -11 | i
O=C(Nc1ccc(C(=O)N2CCCC2)cc1)c1ccccc1F | -2 | 3 | nt | 1 | -3 | 2 | -10 | i
COc1ccc(C(=O)NC(=S)Nc2ccc(NC(=O)c3ccco3)cc2)cc1[N+](=O)[O-] | 2 | 8 | -163 | 2 | -11 | 37 | -15 | i
CSc1nnc(-c2sccc2OCc2ccc(C)cc2)n1C | -1 | -4 | 9 | 2 | -8 | -3 | -23 | i
COc1ccc(Cn2c(=S)[nH]c3cc(C(=O)N4CCN(c5ccccc5)CC4)ccc3c2=O)cc1 | -1 | -2 | 0 | -3 | -11 | -12 | -7 | nt
CC(=O)Nc1ccc(/C(C)=N/NC(=O)CN(c2ccccc2Br)S(C)(=O)=O)cc1 | -2 | -3 | -6 | -14 | 13 | -4 | 3 | i
COc1ccccc1CC(=O)NNC(=O)CN(C)S(=O)(=O)c1ccc(Cl)cc1 | 2 | 2 | -11 | nt | -2 | nt | nt | i
COc1cccc(CNC(=O)C2CCC(CNc3nc(=S)[nH]c4ccccc34)CC2)c1 (stereo unspecified) | 1 | -3 | 4 | -4 | 28 | ? | -23 | i
CC(C)(C)OC(=O)N1CCC(NC(=O)c2ncn(Cc3ccccc3)c2C(=O)NC2CCN(C(=O)OC(C)(C)C)CC2)CC1 | -4 | -8 | 12 | nt | 1 | nt | -14 | nt
Cc1cc(F)ccc1S(=O)(=O)Nc1ncnc2sccc12 | -3 | -2 | 7 | -20 | -3 | -7 | -9 | i
CCOc1cc(C2/C(=C(/O)c3ccc(S(=O)(=O)N4CCCCC4)cc3)C(=O)C(=O)N2CCOC)ccc1O (stereo unspecified) | 0 | 3 | 5 | 16 | -6 | 2 | -14 | i
O=[N+]([O-])c1cccc(-c2ccc(/C=N/NC(=S)NCc3ccco3)o2)c1 | -4 | -8 | 17 | 2 | 49 | -1 | nt | i
CC(=O)c1ccc(N2CCN(C(=O)Cn3c(=S)[nH]c4ncccc4c3=O)CC2)cc1 | nt | nt | nt | -1 | -7 | -4 | nt | i

Assay outcomes as filed in PubChem BioAssay.
